# GIV-Gai inh: inhibitors of GIV GBA-motif binding to rat Galpha-i3; P08753; Galpha-i3/FITC-GIV peptide fluorescence polarization, 90 min; hits give low values; scaled: aluminum fluoride 0%, vehicle 100%; percent of control (FP), % (concentration not given with the values); 210,000 tested, 0.42% active; AID 1224905;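 active = replicate mean at 85% of control or lower, very high polarization wells dropped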;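 also: wells of about 15 µL received 100 nL stock; the first replicate is given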
# Target sequence (P08753 whole entry, looked up): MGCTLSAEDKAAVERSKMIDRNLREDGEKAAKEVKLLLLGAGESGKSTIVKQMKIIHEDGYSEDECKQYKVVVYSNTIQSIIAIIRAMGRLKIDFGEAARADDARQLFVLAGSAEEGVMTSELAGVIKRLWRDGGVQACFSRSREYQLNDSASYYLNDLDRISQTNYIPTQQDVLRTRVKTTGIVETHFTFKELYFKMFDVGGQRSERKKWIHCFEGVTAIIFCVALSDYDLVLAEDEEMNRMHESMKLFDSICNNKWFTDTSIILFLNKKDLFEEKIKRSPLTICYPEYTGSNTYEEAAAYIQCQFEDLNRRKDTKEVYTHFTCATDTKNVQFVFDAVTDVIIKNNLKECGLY
# Numbers without * were called inactive. A portion of the library, so the mix of outcomes need not match the whole.
GIV-Gai inh	structure
102	CCc1onc(C)c1C1CCCN1Cc1ccc(OC)c(OC)c1 (configuration not stated)
100	Cn1c(SCC(=O)Nc2ncn[nH]2)nc2ccsc2c1=O
102	COC(=O)CNC(=O)N1CCCC1c1cc(C(C)C)on1 (configuration not stated)
101	Cc1csc(-c2cc(S(=O)(=O)N3CCCCC3)cn2CC(=O)N2CCCCC2)n1
111	Cc1ccc2c(c1)NC(=O)c1cc(S(=O)(=O)N3CC(C)OC(C)C3)c(Cl)cc1O2 (configuration not stated)
111	C=CCOC(=O)C1=C(C)OC(N)=C(C#N)C1c1ccc2c(c1)OCO2 (configuration not stated)
105	FC(F)Oc1ccc(C2CC(c3ccco3)=Nc3ccccc3S2)cc1 (configuration not stated)
107	CCCCNS(=O)(=O)c1cc2c(c([N+](=O)[O-])c1)-c1c(cc(S(=O)(=O)NCCCC)cc1[N+](=O)[O-])C2=O
104	COC(=O)c1sccc1NC(=O)CN1CCCN(Cc2ccccc2)S1(=O)=O
106	O=C1c2ccccc2Sc2cc(-c3noc(CNS(=O)(=O)c4ccccc4)n3)ccc2N1C1CC1
103	O=C(Nc1cccc(Br)c1)C1CCN(c2cc(C(=O)N3CCCCC3)ccn2)CC1
96	O=S(=O)(c1ccc(Cl)cc1)N1CCN(c2ncnc3c2nnn3-c2ccc(F)cc2)CC1
106	CCOc1ccc(OCC)c(NS(=O)(=O)c2c(C)sc(C)c2-c2cc(C)[nH]n2)c1
107	COC(=O)C1=C(C)NC(C)=C(C(=O)OC)C1c1cn(-c2ccccc2)nc1-c1ccc(OC)c(OC)c1
122	COC(=O)C1=NNC2(C)C(=O)N(c3ccccc3C)C(=O)C12 (configuration not stated)
105	CCOC(=O)C1CCCN(C(=O)c2sc3ncn(CC(=O)Nc4cccc(C(F)(F)F)c4)c(=O)c3c2C)C1 (configuration not stated)
101	N#Cc1c(-c2ccc(F)cc2)cc(C2CC2)nc1SCCN1C(=O)c2ccccc2C1=O
113	CCOc1ccc2c(c1)-c1c(ssc1=Nc1ccc(OC)cc1OC)C(C)(C)N2
118	COc1ccc(N2CCN(CCNC(=O)c3oc(=O)c4ccccc4c3-c3ccccc3)CC2)cc1
103	COc1ccc(Nc2nc(-c3nnn(-c4cccc(Cl)c4)c3C)ns2)cc1OC
108	O=C(Nc1cccc(Br)c1)c1cccc(Nc2ncc(-c3ccc(F)cc3)cn2)c1
116	COc1ccc(CN2CCCC2c2cc(C(C)C)on2)c(OC)c1 (configuration not stated)
106	O=S(=O)(Nc1cc(F)cc(F)c1)c1ccc2nncn2c1
104	COC(=O)CCC/C=C1/SCC(NC(=O)c2ccccc2)C1NC(C)=O (configuration not stated)
31*	CC(C)NS(=O)(=O)c1ccc(-c2ccno2)s1

# Nothing new here: 6 of the compounds above.
GIV-Gai inh	structure
103	COc1ccc(Nc2nc(-c3nnn(-c4cccc(Cl)c4)c3C)ns2)cc1OC
108	O=C(Nc1cccc(Br)c1)c1cccc(Nc2ncc(-c3ccc(F)cc3)cn2)c1
116	COc1ccc(CN2CCCC2c2cc(C(C)C)on2)c(OC)c1 (configuration not stated)
106	O=S(=O)(Nc1cc(F)cc(F)c1)c1ccc2nncn2c1
104	COC(=O)CCC/C=C1/SCC(NC(=O)c2ccccc2)C1NC(C)=O (configuration not stated)
31*	CC(C)NS(=O)(=O)c1ccc(-c2ccno2)s1

# Given as labelled records: two of the compounds above
COc1ccc(N2CCN(CCNC(=O)c3oc(=O)c4ccccc4c3-c3ccccc3)CC2)cc1
  GIV-Gai inh: 118

Cc1csc(-c2cc(S(=O)(=O)N3CCCCC3)cn2CC(=O)N2CCCCC2)n1
  GIV-Gai inh: 101

# Going on with the list.
GIV-Gai inh	structure
105	Cc1nc(-c2ccc(C)c(S(=O)(=O)N3CCCC3)c2)no1
106	COC(=O)CN1C(=O)C2(C(C#N)=C(N)Oc3c2c(C)nn3-c2cccc(Cl)c2)c2ccccc21 (configuration not stated)
104	CCOc1ccc(Nc2nc(Nc3ccc(C(C)=O)cc3)nc(C)c2[N+](=O)[O-])cc1
103	Cc1cc(C)cc(NC(=O)CCc2nc(CSc3nc4ccccc4[nH]3)no2)c1
106	COC(=O)C1=CN(Cc2ccc(OC)c(OC)c2)C=C(C(=O)OC)C1c1cccc(OC)c1OC
106	COc1cccc(N/C(SCc2cccc([N+](=O)[O-])c2)=C(/C#N)C(=O)NCc2cccs2)c1
110	COCC(=O)N1CCCC(C)(C(=O)NCc2cccc(F)c2)C1 (configuration not stated)
104	CCCC(=O)N1c2cc(C)c(C)cc2/C(=C2/SC(C(=O)OCC)=C(c3ccccc3)S2)C(=S)C1(C)C
107	COc1cccc(/C=C2\C(=O)NC(=O)N(c3ccc(Br)c(C)c3)C2=O)c1OC
114	CCOc1ccc(Br)cc1C=Nc1c(C)n(C)n(-c2ccccc2)c1=O
106	CCCN1C(SCC(=O)Nc2cccc(OC)c2)=NS(=O)(=O)c2ccccc21
104	COc1ccc(Nc2nc(Nc3ccc(OC)cc3)nc(Sc3nccn3C)n2)cc1
104	COc1cc(/C=C\C(=O)Nc2c3c(nn2-c2ccc(Cl)cc2)CS(=O)(=O)C3)cc(OC)c1OC
108	O=C(Nc1ccc(-c2noc(-c3ccc(Br)o3)n2)cc1)c1ccco1
94	O=c1c2[nH]c3ccccc3c2ncn1Cc1nc(C2CC2)no1
109	O=C(CSc1ncccc1C(=O)O)c1ccccc1
122	Fc1ccc2nc3c(nc2c1)c1ccccc1n3Cc1c(Cl)cccc1Cl
101	CCCCCCC1Oc2ccc([N+](=O)[O-])cc2C2OC(c3ccccc3)(c3ccccc3)c3ccccc3N12 (configuration not stated)
105	Cc1ccc(-c2nc(SCc3noc(CCC(=O)Nc4cc(C)on4)n3)n[nH]2)cc1
118	COc1ccccc1/C=C1/N=C(c2ccc(OC)c(OC)c2)N(c2ccc(C)cc2C)C1=O
110	COc1cc(/C=c2\sc3nc4ccccc4n3c2=O)ccc1OCC(=O)Nc1cc(C)ccc1C
106	Cc1ccc2nc(NC(=O)CSc3nc(C)nc4c3c(=O)n(C)c(=O)n4C)sc2c1
101	CC(=O)N1CCC(C(=O)NCc2ccccc2)(N(C(=O)c2ccc(C)cc2)c2ccccc2F)CC1
110	CCOc1ccc(NC(=O)Nc2ccccc2-c2cc3ccccc3[nH]2)cc1
106	COc1ccc(NC(=S)N2c3ccc(C)cc3C3CN(C)CCC32)cc1 (configuration not stated)
103	Cc1nc(OCC(=O)N2CCc3ccccc32)c2c(-c3ccc(F)cc3)noc2n1
103	O=C(Nc1ccccc1)c1nnc(C2CCN(C(=O)C3CCC3)CC2)s1
111	O=C1C(c2ccccn2)=C(O)c2ccccc21
102	O=C(c1ccc(F)cc1)N1CCCN(Cc2noc(-c3ccccc3)n2)CC1
98	CCOC(=O)c1sc2ncnc(NCCC3=CCCCC3)c2c1C
109	CCOC(=O)c1ccc(NC(=O)CN(c2ccc(OC)cc2OC)S(=O)(=O)c2ccccc2)cc1
100	c1ccc2c(c1)OCC(c1nc(-c3ccc(-n4ccnc4)nc3)no1)O2 (configuration not stated)
108	CCOc1cccc2c1OC(c1ccccc1Cl)N1N=C(c3ccc(OC)cc3)CC21 (configuration not stated)
102	CC1(C)CC(=O)c2c(nc(Cc3ccccc3)c3[nH]c4ccccc4c23)C1
103	COCC(CN1CCN(C2=NS(=O)(=O)c3ccccc32)CC1)OC(=O)c1ccc(OC)cc1 (configuration not stated)
102	O=C(Nc1ccc(F)cc1)N1CCN(Cc2cc(=O)n3nc(-c4ccccc4F)sc3n2)CC1
102	CC1CCCN(CCCNC(=O)CC2CCN(S(=O)(=O)c3cccs3)CC2)C1 (configuration not stated)
110	CCN(CC)c1ncnc2sc(C(=O)N3CCN(c4ccccc4)CC3)c(C)c12
96	CCCOc1c(C(=O)OC)sc2ccc(NS(=O)(=O)c3cc(C)ccc3NC(C)=O)cc12
99	O=C(c1ccncc1)N1CCN(C(=O)c2cc3cc(Cl)ccc3[nH]2)CC1
107	CN1C(=O)C2(CCN(C(=O)C3CCC3)C2)c2ccccc21 (configuration not stated)
100	O=C(NC1CCCC1)C1CCN(c2ncc(-c3ccccc3)cn2)CC1
97	O=C(NCc1csc(-c2ccccc2)n1)[C@H]1CCCN1C(=O)Nc1cccc(Br)c1
101	COc1ccc(C2C3=C(CCCC3=O)Nc3ncnn32)c(OC)c1OC (configuration not stated)
105	COc1ccccc1CNS(=O)(=O)c1ccc(F)c(C(=O)Nc2c(F)cc(F)cc2Br)c1
103	CC(C)N1CCN(C(=O)c2sc3ncccc3c2-n2cccc2)CC1
108	COc1ccc(S(=O)(=O)n2c(SCC(=O)NCc3cccs3)nc3ccccc32)cc1
142	CCCN(CCC)C(=O)c1ccc(-c2cc(N3CCCC3)ncn2)cc1
103	O=S(=O)(NC1CCCC1)c1ccc(-c2cnc(C3CCCC3)o2)s1
114	COc1ccc(N2C(=O)/C(=C/c3cc(OC)c(OC)c(OC)c3)N=C2c2ccc(Cl)cc2)cc1OC

# Reprinted from the part before: four compounds, then new ones.
GIV-Gai inh	structure
108	COc1ccc(S(=O)(=O)n2c(SCC(=O)NCc3cccs3)nc3ccccc32)cc1
142	CCCN(CCC)C(=O)c1ccc(-c2cc(N3CCCC3)ncn2)cc1
103	O=S(=O)(NC1CCCC1)c1ccc(-c2cnc(C3CCCC3)o2)s1
114	COc1ccc(N2C(=O)/C(=C/c3cc(OC)c(OC)c(OC)c3)N=C2c2ccc(Cl)cc2)cc1OC
120	CC(=O)Oc1ccccc1-c1nc2s/c(=C/c3ccc(C)cc3)c(=O)n2n1
102	Cc1ccc(-c2noc(C3CC3)n2)cc1S(=O)(=O)Nc1ccc2c(c1)OCO2
98	CCOC(=O)C1CCN(C(=O)c2ccc(N3CC4CC(C3)c3cccc(=O)n3C4)c(NC(=O)c3cccs3)c2)CC1 (configuration not stated)
102	Cc1ccnc(N2CCC(C(=O)N3CCN(c4ccccn4)CC3)CC2)n1
109	CC(C)(C)c1csc(-c2csc(S(=O)(=O)NCc3ccc(Br)cc3)c2)n1
107	N#CC1=C(N)OC(NCc2ccco2)=C(NC(=O)c2ccccc2)C1c1ccccc1 (configuration not stated)
100	CSC1=NC(=Nc2ccc(C)cc2)C2(CCC(C(C)(C)C)CC2)N1c1ccc(Cl)cc1 (configuration not stated)
106	O=c1c2cn[nH]c2[nH]c(=S)n1-c1ccc(F)c(Cl)c1
106	CCOP(=O)(OCC)c1nc(-c2ccc(Cl)cc2Cl)oc1N(C)C
97	CCc1ccc2c(c1)[C@H]1OCCC[C@H]1C(c1ccc(OC)c(OC)c1)N2 (some centres not stated)
103	CCc1onc(C)c1C1CCCN1S(=O)(=O)c1ccc(Cl)s1 (configuration not stated)
103	CCOc1ccc(C2(O)CN(c3cc(C)ccc3C)C3=[N+]2CCCS3)cc1 (configuration not stated)
103	Cc1c(S(=O)(=O)NCC2CCCO2)c(C)n(C)c1-c1nnc(C2CCC2)o1 (configuration not stated)
111	CNc1nc(OCC(F)(F)F)nc(N2CCCC[C@H]2c2cccnc2)n1
107	Cc1ccc(C)c(NC(=O)c2cc(S(=O)(=O)N3CCN(c4ccccc4)CC3)ccc2F)c1
101	CCOCCCNC(=O)C1CCCN(S(=O)(=O)N2CC(C)CC(C)C2)C1 (configuration not stated)
112	NS(=O)(=O)c1ccc(CCNC(=O)CSc2nc(NC3CCCCC3)c3ccccc3n2)cc1
108	N#Cc1cc2c(N)c(C(=O)Nc3ccc(S(N)(=O)=O)cc3)sc2nc1N
96	O=S(=O)(c1ccccc1F)N1CCN(c2ncnc3c2nnn3-c2cccc(F)c2)CC1
107	COc1cc(C(=O)NC(c2ccccc2Cl)c2cc([N+](=O)[O-])c3cccnc3c2O)cc(OC)c1OC (configuration not stated)
99	COc1cccc(C(=O)Cn2c(Br)nc3c2c(=O)n(C)c(=O)n3C)c1
102	CN(Cc1ccccc1)C(=O)c1nc(N2CCCC2)c2oc3ccccc3c2n1
108	CCOc1ccc(NC(=O)Cn2cc(-c3nnc(CN4CCCCC4)o3)c3ccccc32)cc1
110	Cn1nc(-c2ccc(Cl)cc2)c2cc(C(=O)Nc3ccc(Br)cc3F)sc21
99	COc1ccc(C(=O)c2sc3nc4c(c(-c5ccco5)c3c2N)CCC4)cc1
96	Cc1ccc(NC(=O)c2sc3nc[nH]c(=O)c3c2C)cc1F
98	O=S(=O)(NCc1cccs1)c1cc(-c2noc(C3CCC3)n2)cs1
114	CN1CCN(CC(=O)N2c3ccccc3C=Cc3ccccc32)CC1
98	Fc1ccc(-c2noc(-c3ccc(N4CCOCC4)nc3)n2)cc1
98	COC(=O)C1(OC)C(C(=O)c2ccc(Cl)cc2)=C(OC)C(=O)N1c1ccccc1 (configuration not stated)
99	Cc1nn(-c2ccc3nnc(C)n3n2)c2c1C(c1ccccc1OCc1cccc(F)c1)CC(=O)N2 (configuration not stated)
98	CN1CCCc2cc(C(=O)NCc3cccs3)sc21
103	Cn1c(SCc2ccc(Cl)cc2)nnc1-c1ccc2c(c1)OCCCO2
101	CN(C)c1nc(Nc2ccc(F)cc2)c2cnn(-c3ccccc3)c2n1
110	CCOCCn1cnc2sc(C(=O)NCCCOC)c(C)c2c1=O
106	CC(C)(C)c1ccc(S(=O)(=O)Nc2ccc(-c3nnc(-c4ccccc4)o3)cc2)cc1
104	Cc1ccc(CN2CCCCCC2c2cccs2)s1 (configuration not stated)
108	CCN(CC)S(=O)(=O)c1ccc(NC(=O)N2CCCC(C(=O)Nc3cccc(C)c3)C2)s1 (configuration not stated)
98	CC1CCCN(CC2CCN(S(=O)(=O)c3ccc(C#N)cc3)CC2)C1 (configuration not stated)
